# High-throughput results (PubChem)
# VDR inhibitor = inhibitors of human vitamin D receptor; P11473; VDR-SRC2-3 peptide fluorescence polarization, 2 h; Potency, µM, for inactives: max response, negative = inhibition, hits mostly inhibitors; 400,000 compounds, 0.93% hits; AID 504847; active means well fitted inhibition curve with a large enough effect; inconclusive means small, poorly fitted or top-dose-only effect, or another doubt; inactive means no such curve, though single readings can be large or run the other way; further: series mostly up to about 120 µM
# Target sequence (P11473 whole entry, looked up): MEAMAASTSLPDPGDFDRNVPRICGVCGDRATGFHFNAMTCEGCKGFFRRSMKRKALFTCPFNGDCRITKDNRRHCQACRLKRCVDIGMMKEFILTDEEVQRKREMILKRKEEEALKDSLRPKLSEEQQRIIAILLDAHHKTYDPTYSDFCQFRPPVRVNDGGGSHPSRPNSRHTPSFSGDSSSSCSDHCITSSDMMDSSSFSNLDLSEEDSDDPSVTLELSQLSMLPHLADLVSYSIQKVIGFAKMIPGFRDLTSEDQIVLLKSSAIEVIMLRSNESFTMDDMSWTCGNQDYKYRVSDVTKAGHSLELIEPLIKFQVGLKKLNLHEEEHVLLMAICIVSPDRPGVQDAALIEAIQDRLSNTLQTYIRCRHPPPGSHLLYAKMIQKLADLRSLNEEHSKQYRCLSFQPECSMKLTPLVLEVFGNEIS
#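 The screen uses fluorescence polarization to detect compounds that interfere with recruitment of the SRC2-3 coactivator peptide to VDR; plates are read after 2 h at room temperature.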
# * hit, by the source's call; u = inconclusive; & = joins results of further samples. On the % scale 0 is the no-effect control and ±100 the full control effect; potency means the concentration at half of the fitted maximal effect. Some of the compounds tested; the hit share may differ from the screen's.
SMILES,VDR inhibitor
O=C(c1ccco1)N1CCN(C(=S)NC2CC3CCC2C3)CC1 (configuration not stated),-10%
Cc1ccc(S(=O)(=O)N(Cc2n[nH]c(=S)n2-c2ccccc2)c2cccc(Cl)c2)cc1,3%
CC(=O)c1ccc(-c2nc3ccccc3n2C)o1,7%&-7%
C/C(=N\NC(=O)C1CCCC1)c1ccc(Cl)cc1Cl,-1%
O=C(Nc1nc2ccccc2n1CCN1CCOCC1)c1cn(-c2ccccc2)nc1-c1ccccc1,-1%
Cc1ccc2nc(N3CC(C)OC(C)C3)nc(-c3ccccc3)c2c1 (configuration not stated),-9%
Cc1ccc(OCC(=O)N2CCc3ccccc3C2)c(Br)c1,-14%
O=C(Nc1nc2cc3c(cc2s1)OCCO3)c1ccc([N+](=O)[O-])o1,0%
Cc1ccc(N)c([N+](=O)[O-])c1,-23%
COc1ccc(-c2cc(C(F)(F)F)nc(SCCC(=O)Nc3cc(C)ccc3O)n2)cc1,-19%
O=C(N1CCN(Cc2ccc3c(c2)OCO3)CC1)C(Cl)(Cl)Cl,-8%
COCCn1c(-c2ccccc2)nc2oc3ccccc3c(=O)c2c1=O,-22%
O=C(Cn1ncc2c3ccccc3n(Cc3ccccc3F)c2c1=O)N1CCCCC1,6%
COc1ccc(Cl)cc1NC(=O)C/C(C)=N/NC(=O)c1ccccc1Cl,7%
CCOC(=O)c1oc2ccc(Br)cc2c1COC(=O)C1=COCCO1,-3%
O=C(Nc1cccc(Cl)c1)Nc1ccc2c(c1)C(=O)OC2,-13%
O=C(Cc1nn[nH]n1)NCc1ccccc1Cl,-1%
Cc1cc(C)n2nc(SCC(=O)N3CCN(c4ccc(F)cc4)CC3)nc2n1,3%
O=C(COC(=O)C(Cc1ccccc1)NC(=O)c1ccco1)NC1CC1 (configuration not stated),-7%
CCc1cccc(NS(=O)(=O)c2ccc3c(c2)NC(=O)CO3)c1,-6%
CCOc1ccccc1NC(=O)c1cnccn1,-1%
O=C(COC(=O)CC(NC(=O)c1ccccc1Cl)c1ccccc1)Nc1cccc(F)c1 (configuration not stated),14%
COc1cc(OC)c(/C=N/NC(=O)c2ccc([N+](=O)[O-])cc2)cc1Br,0%
Cc1c(C(=O)O)cccc1-c1ccc(/C=N/n2cnnc2)o1,-9%
COc1ccc2cc(C(N)=O)/c(=N/NC(=O)c3ccco3)oc2c1,-12%
CCOc1ccccc1NC(=O)C(CC)Sc1nc2ccsc2c(=O)n1CCC(=O)O (configuration not stated),2%
Cc1ccc(CNC(=O)C(C(=O)NCc2ccc(C)o2)c2ncc(C(F)(F)F)cc2Cl)o1,-17%
COCC(=O)Nc1ccc(S(=O)(=O)NCC2CCCO2)cc1 (configuration not stated),-2%
Cc1ccccc1Cn1c(C)c(CNCCCc2ccccc2)c(C(=O)O)c1C,15%
O=C(NCc1ccncc1)c1ccc(Cl)c(S(=O)(=O)N2CCOCC2)c1,7%

# Part of the list above in order of formula weight, low to high:
SMILES,VDR inhibitor
CCc1cccc(NS(=O)(=O)c2ccc3c(c2)NC(=O)CO3)c1,-6%
COCCn1c(-c2ccccc2)nc2oc3ccccc3c(=O)c2c1=O,-22%
COc1ccc(Cl)cc1NC(=O)C/C(C)=N/NC(=O)c1ccccc1Cl,7%
COc1ccc(-c2cc(C(F)(F)F)nc(SCCC(=O)Nc3cc(C)ccc3O)n2)cc1,-19%

# Remaining list, next part.
SMILES,VDR inhibitor
COc1ccc(NC(=O)c2cc3c(=O)n(Cc4cccnc4)ccc3nc2C)cc1Cl,8%
COc1ccc(C(=O)NC(CC(=O)O)c2cc([N+](=O)[O-])ccc2Cl)cc1 (configuration not stated),-11%
O=C(c1ccc(C(F)(F)F)cc1)C1CCCN(Cc2cccn2-c2ncccn2)C1 (configuration not stated),19%
Cc1noc(C)c1C(=O)OC(C)C(=O)NC(C)c1ccc(Cl)cc1Cl (configuration not stated),-13%
O=C(CCCOc1ccc(Cl)cc1Cl)N/N=C/c1ccc(Cl)cc1,u
CCCS(=O)(=O)c1nc(S(=O)(=O)c2ccc(C)cc2)c(N2CCC3(CC2)OCCO3)s1,-6%
CCOc1[nH]n(-c2ccccc2)c(=O)c1C=NCC(=O)OC,-12%
COC(=O)N/N=C(\C)c1ccccc1Br,16%
COc1ccc(N2CC(C(=O)Nc3ccc(S(=O)(=O)N4CCOCC4)cc3)CC2=O)cc1 (configuration not stated),-2%
CC1NC(=O)NC1CCCCC(=O)O (configuration not stated),2%
O=C(COC(=O)COc1ccc2ccccc2c1)NC1CCCc2ccccc21 (configuration not stated),-26%
COC(=O)C1(C(=O)OC)C/C=C\Cc2ccccc2[C@@H]1C[N+](=O)[O-],-17%&1%&-15%
CC1CCC(C(=O)NC(C(=O)N2CCN(c3ccccn3)CC2)C(C)C)CC1 (configuration not stated),-15%
Cc1noc(C)c1C(=O)N1CCC2(CC1)CCN(C(c1ccccc1)c1ccccc1)CC2,-8%
CCN(CC)c1nn2c(=O)c(C(=O)NCCc3ccccc3C)cnc2s1,16%

# Four compounds from above, arranged by their value in VDR inhibitor, smallest number first:
SMILES,VDR inhibitor
Cc1noc(C)c1C(=O)OC(C)C(=O)NC(C)c1ccc(Cl)cc1Cl (configuration not stated),-13%
CCOc1[nH]n(-c2ccccc2)c(=O)c1C=NCC(=O)OC,-12%
COc1ccc(NC(=O)c2cc3c(=O)n(Cc4cccnc4)ccc3nc2C)cc1Cl,8%
O=C(c1ccc(C(F)(F)F)cc1)C1CCCN(Cc2cccn2-c2ncccn2)C1 (configuration not stated),19%

# The list continues.
SMILES,VDR inhibitor
Cc1ccc2cc3cc(C(=O)N(CC(=O)NC4CCCC4)c4cccc(C)c4C)sc3nc2c1,8%
COc1ccc2c(c1)[nH]c1c(=O)n(CCC3=CCCCC3)cnc12,-15%
CCC(=O)Nc1cc(C(=O)O)ccc1Sc1ccc(Cl)cc1,22%
CC(C)N(Cc1nc(-c2ccc(Cl)cc2)no1)C(=O)/C=C/c1ccccc1,-8%
CCCSC1=C(C#N)C(c2cccnc2)C(C(=O)OCC)=C(c2ccccc2)N1 (configuration not stated),6%
O=C(CSc1nc2ccccc2nc1Cc1ccccc1)N1CCc2ccccc21,4%
CCN1C(=O)CC(N2CCC(C(=O)N3CCOCC3)CC2)C1=O (configuration not stated),-1%
COC(=O)c1ccc(NC(=O)Nc2ccc(F)c(Cl)c2)cc1,-11%
COc1cc2oc(=O)cc(-c3ccc(-c4ccc(F)c(Cl)c4)cc3)c2c(OC)c1OC,-6%&-2%
O=C(/C=C/c1ccccc1Cl)c1ccc(O)cc1,u
COc1cccc(C(=O)Nc2c3c(nc4c2CCC4)CCCC3)c1,-12%
CCCCN(CC)CCCNC(=O)c1csc2c1CCCCC2,-8%
CCOc1cc(C(=O)Nc2ccc(S(=O)(=O)Nc3onc(C)c3C)cc2)cc(OCC)c1OCC,-6%
COc1ccc(NC(=O)CCN2CCN(CCO)CC2)c(OC)c1,-1%
COc1ccc(NC(=O)c2c(N)no[n+]2[O-])cc1,15%
Cn1nnnc1SCC(=O)Nc1ncc(Cl)cc1Cl,-1%
COc1ccc(C(=O)Nc2ccnn2C2CCN(C(=O)c3cccnc3)CC2)cc1,6%
CC(C)=CCCC1(C)C=Cc2c(O)c3c(c(CC=C(C)C)c2O1)OC12C(=CCCC1C(C)(C)O[C@@]2(C/C=C(\C)C(=O)O)C(=O)O)C3=O (some centres not stated),45µM*
CCN(CC)c1ccc(S(=O)(=O)N2CCCCC2)cc1NC(=O)C1=COCCO1,-6%
Fc1ccccc1Cn1c(-c2ccccc2)nc2ccccc21,7%
Cn1c(OCc2ccc3c(c2)OCO3)nc2c1c(=O)n(Cc1cccc(Cl)c1)c(=O)n2C,7%
Cc1cnc(=O)[nH]c1SCC(=O)Nc1nc2ccccc2s1,13%
COc1ccc(-c2c(C)cc3oc(=O)cc(-c4ccccc4)c3c2C)cc1,1%&-18%
O=C(CSc1cccc2cccnc12)OCC(=O)c1ccc(Br)cc1,14%
O=C(Cn1cnc2ccccc2c1=O)NNC(=O)c1ccccc1F,7%
CCOC(=O)c1nnn(-c2nonc2NC(C)=O)c1C,-15%
Cn1c(=O)oc2cc(S(=O)(=O)N3CCC(C(=O)N4CCN(c5ccccc5F)CC4)CC3)ccc21,-20%
Cc1cccc(C)c1NC(=O)C(=O)NCC1CCCN1S(=O)(=O)c1cccs1 (configuration not stated),5%
CCCCC[C@H](O)/C=C/C1=C(CCCCCCC(=O)O)C(=O)CC1,u
Cc1ccc(-c2ccc(SCC(=O)N3CCN(c4ccccc4)CC3)nn2)cc1,0%
COc1ncc2nc(C)c(=O)n(C)c2n1,0%
O=S(=O)(c1ccc(N2CCN(S(=O)(=O)c3ccc4c(c3)OCCO4)CC2)nc1)N1CCCC1,5%
COc1ccc(C2(c3ccc(OC)cc3)NC(=O)N(CC(=O)N(C)C)C2=O)cc1,6%
CC(C)C[C@@H]1NC(=O)[C@H](C(C)C)NC(=O)c2cc([N+](=O)[O-])cc(I)c2NCC[C@@H](C(N)=O)NC1=O,-10%
CCCn1cc(CN2CCc3ccc(NC(=O)C4CCCO4)cc3C2)c(C)n1 (configuration not stated),-11%
Cc1nc2c(-c3ccc(F)cc3)cnn2c2c1CCC2,4%
Cc1ccnc(NC(=S)NC(=O)/C=C/c2ccco2)c1,-11%
CO[C@@H]1C[C@H](O[C@H]2[C@@H](C)[C@H](O[C@@H]3O[C@@H](C)C[C@@H](N(C)C)[C@@H]3OC(C)=O)[C@H](C)C[C@]3(CO3)C(=O)[C@H](C)[C@H](OC(C)=O)[C@H](C)[C@H](C)OC(=O)[C@@H]2C)O[C@H](C)[C@@H]1OC(C)=O,-3%
C=CCn1c(SCc2ccc(Cl)cc2)nc2c1c(=O)[nH]c(=O)n2C,-26%
COC(=O)c1cc2ccsc2n1CC(=O)Nc1ccc(N(C)C)cc1,-3%
O=C(Oc1ccc2c(=O)c(Oc3ccc4ccccc4c3)coc2c1)c1cncc(Br)c1,4%
Cc1oc2cc3oc(=O)c(CC(=O)NCCC(=O)O)c(C)c3cc2c1C,-6%
Cc1ccc(-n2ncc3c(=O)[nH]cnc32)c(C)c1,-24%
Cc1ccccc1CNC(=O)c1cnc2sc(N3CCOCC3)nn2c1=O,4%
COc1ccc(N(CC(=O)Nc2ccc(C)c(C)c2)S(=O)(=O)c2c(C)n[nH]c2C)cc1,7%
CCC(=O)C1=C(N2CCCC2)CC(C)(C)CC1=O,1%
O=C(COC(=O)c1cc(-c2ccccc2Cl)nc2ccccc12)Nc1ncc(C(F)(F)F)cc1Cl,1%
COc1ccccc1N1CCN(C(=O)CSc2nc3ccccc3o2)CC1,-6%
CS(=O)(=O)N(CC(=O)Nc1ccccc1C(=O)NCc1ccco1)c1ccc2c(c1)OCCO2,1%
O=C(NCc1ccc(Cl)cc1)C(=O)NCC1OCCN1S(=O)(=O)c1ccc2c(c1)OCCO2 (configuration not stated),10%
O=C(COC(=O)Cc1ccsc1)NC1CCCCCC1,-17%
O=C(Nc1ccccc1C(=O)O)c1cc(S(=O)(=O)NCc2ccccc2)ccc1Cl,-4%
COCCNc1nnc(SC(C)C(=O)Nc2ccc(-c3nc4ccc(C)cc4s3)cc2)s1 (configuration not stated),-18%
O=C(N/N=C/c1cccnc1)c1cccc(Br)c1,-6%
COc1cccc(NC(=O)CN(C)C(=O)CCNS(=O)(=O)c2ccc(C)cc2)c1,-13%
COc1ccc(C(=O)CSc2nc3cccnc3n2C)cc1,9%
Fc1ccc(NCc2ccccc2F)cc1Cl,-8%
COc1cc(CNc2ccc(N3CCCC3)cc2)ccc1OCc1ccccc1,35µM*
C=CCC1CCCC(=O)N2CCCC12 (configuration not stated),-8%&0%
CN(C)S(=O)(=O)c1cccc(NC(=O)COC(=O)CCC(=O)c2ccc(F)cc2)c1,9%

# Next part.
SMILES,VDR inhibitor
O=C(Nc1ccc2oc(=O)ccc2c1)c1cc2ccccc2o1,14%
Cc1nn(C)cc1CN(C)Cc1c(C(=O)N(C)Cc2ccccc2)nc2ccccn12,-20%
COc1ccc(C2c3c(oc4ccc(Cl)cc4c3=O)C(=O)N2CCCN(C)C)cc1OC (configuration not stated),6%
CN1CCN(S(=O)(=O)c2cccc(C(=O)Nc3cc(Cl)ccc3N3CCOCC3)c2)CC1,u
COc1cccc(CNC(=O)c2ccc3nc(-c4ccc(F)cc4)c(-c4ccc(F)cc4)nc3c2)c1,-7%
COc1cccc2[nH]c(C(=O)NN)c(N)c12,0%
Cc1cc(NC(=O)c2ccc(Cl)cc2)n(CCC#N)n1,-17%
Cc1cccc(C(=O)N/N=C/c2coc3ccccc3c2=O)c1,-18%
Cc1cc(C)c(C(=O)c2cccs2)c(C)c1,-4%
CCC(Sc1nccn1C)C(=O)Nc1nnc(C)s1 (configuration not stated),-11%
CC(=O)N1c2ccccc2CC1C(=O)N1CCN(c2cccc(C)c2C)CC1 (configuration not stated),1%
O=C(Cc1ccc(S(=O)(=O)N2CCOCC2)s1)Nc1cc(C(F)(F)F)ccc1N1CCCC1,12%
Cc1ccc(-c2nc3sccn3c2Nc2ccc(C)c(C)c2)cc1,-1%
Cc1ccc(C)c(/C(O)=C2\C(=O)C(=O)N(CCCN3CCOCC3)C2c2cccnc2)c1 (configuration not stated),-15%

# With a hit mark in VDR inhibitor (from the list above):
SMILES,VDR inhibitor
CC(C)=CCCC1(C)C=Cc2c(O)c3c(c(CC=C(C)C)c2O1)OC12C(=CCCC1C(C)(C)O[C@@]2(C/C=C(\C)C(=O)O)C(=O)O)C3=O (some centres not stated),45µM*
COc1cc(CNc2ccc(N3CCCC3)cc2)ccc1OCc1ccccc1,35µM*
